# High-throughput results deposited in PubChem by National Center for Advancing Translational Sciences (NCATS).
# miR-21 FLuc = miR-21 reporter, rising signal; HeLa miR-21 FLuc reporter, luciferase, 48 h; Potency, µM (series often up to 38.3 µM), for the others: at the highest dose reporter change, positive = more light; 340,000 tested, under 10 active; AID 2288; active = well fitted rising curve with a large enough effect; inconclusive = small, poorly fitted or top-dose-only effect; inactive = no such curve, though single readings can be large or run the other way;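 also: % of control where 0% means no effect; miR-21 action dims this reporter so a rising signal means less miR-21 action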
#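 Using DMEM plus 10% FBS, HeLa miR-21-FLuc cells are incubated with test compounds (final up to about 40uM) for 48 hours; firefly luciferase signal is then imaged following reagent-mediated lysis.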
# Active calls of the source: *; ? = inconclusive.
# A first look, 3 compounds:
SMILES,miR-21 FLuc
O=C(Cc1ccc(Cl)cc1)Nc1ccc2nn(-c3ccc(Cl)cc3)nc2c1,2.0%
COc1ccc(CCNC(=O)c2ccc(Cn3c(SCC(=O)NCCC(C)C)nc4cc5c(cc4c3=O)OCO5)cc2)cc1OC,3.4%
CCC(C)NC(=O)Cn1c(=O)n(Cc2ccc(C(=O)NCc3ccc(C)cc3)cc2)c(=O)c2ccccc21 (stereo unspecified),-11.2%

# The whole of this part (from the top)
SMILES,miR-21 FLuc
O=C(Cc1ccc(Cl)cc1)Nc1ccc2nn(-c3ccc(Cl)cc3)nc2c1,2.0%
COc1ccc(CCNC(=O)c2ccc(Cn3c(SCC(=O)NCCC(C)C)nc4cc5c(cc4c3=O)OCO5)cc2)cc1OC,3.4%
CCC(C)NC(=O)Cn1c(=O)n(Cc2ccc(C(=O)NCc3ccc(C)cc3)cc2)c(=O)c2ccccc21 (stereo unspecified),-11.2%
COC(=O)c1ccc(NC(=O)C(=O)NCC(c2cccnc2)N2CCc3ccccc32)cc1 (stereo unspecified),-15.0%
CNS(=O)(=O)c1cn(CC(=O)N2CCN(c3ccc(OC)cc3)CC2)cc1S(=O)(=O)NC,3.5%
Cc1ccc2oc(-c3ccc(Cl)c(NC(=O)c4ccc(OC(C)C)cc4)c3)nc2c1,-47.0%
COc1ccc(CCNC(=O)Cn2cc(C(=O)c3ccccc3)c(=O)c3ccc(C)nc32)cc1OC,-12.6%
Cc1ccc(NC(=O)Cn2cc(S(=O)(=O)c3ccc(F)cc3)c(=O)c3cc4c(cc32)OCO4)cc1,-3.4%
Cc1cccc(N2CCN(C(=O)Cn3c(=O)c4cccn4c4ccc(F)cc43)CC2)c1C,-1.4%
COc1ccccc1CNC(=O)c1ccc2nc(-c3ccccc3)c(-c3ccccc3)nc2c1,13.2%
CCc1ccc(C2C(C(=O)Nc3ccc(Cl)cc3)=C(C)Nc3ncnn32)cc1 (stereo unspecified),1.1%
CCCCN(c1ccccc1)S(=O)(=O)c1cc2c3c(c1)C(C)C(=O)N3CCC2 (stereo unspecified),18.9%
Cc1ccc(CCNC(=O)c2cc3c(s2)-c2ccccc2OC3)cc1,-20.2%
CCCCN(CC)C(=O)CSc1nc2ccccc2c(=O)n1Cc1ccco1,29.2%
CC(C)CCn1c(=O)c2sccc2n2c(CCCC(=O)NC3CCC(C)CC3)nnc12 (stereo unspecified),-1.0%
CCCSc1ncc(Cl)c(C(=O)Nc2c(C(=O)c3ccc(F)cc3)oc3ccccc23)n1,-4.7%
CCC(=O)N1CCc2cc(Br)cc(S(=O)(=O)CCC(=O)N3CCN(c4ccccc4F)CC3)c21,4.3%
Cc1ccc(CNC(=O)c2nc(SCc3ccc(F)cc3)ncc2Cl)cc1,-2.1%
Cc1sc2c(c1C)c(=O)n(-c1ccc(Cl)cc1)c(=O)n2Cc1cc(=O)n2cc(Br)ccc2n1,-2.6%
CSc1ccc(CNC(=O)c2sc3ncnc(N(C)C4CCCCC4)c3c2C)cc1,6.1%
COc1cccc(-n2c(SCC(=O)c3ccc(Cl)cc3)nc3c([nH]c4ccccc43)c2=O)c1,-13.2%
Cc1nn2c(-c3ccco3)ccnc2c1-c1ccc(Cl)cc1,-29.5%
COc1cccc(C(=O)NCc2nc(-c3ccccc3)no2)c1OC,-15.7%
CCN(CC)c1ccc(CN(C(=O)Cc2coc3ccc(C)cc23)C2CCS(=O)(=O)C2)cc1 (stereo unspecified),12.0%
CCOc1ccc(CC(=O)NCCc2csc(-c3ccc(C(F)(F)F)cc3)n2)cc1,-1.9%
COc1ccc(NC(=O)C2=C(C)Nc3ncnn3C2c2sccc2C)cc1 (stereo unspecified),0.2%
Cc1ccc(N2CC3=C(C2=O)C(c2ccc(Br)cc2)NC(=O)N3C)cc1 (stereo unspecified),0.4%
Cc1ccc(NC(=O)CSc2nc3c(oc4ccccc43)c(=O)n2-c2ccc(F)cc2)c(C)c1,7.5%
Cc1nn(C)c(C)c1S(=O)(=O)N(CC(=O)NCCc1ccccc1)c1ccc(C(C)C)cc1,-3.1%
Cc1nn(C(=O)c2ccc(Cl)cc2)c(C)c1S(=O)(=O)N1CCOCC1,-0.1%
COc1ccc(C(=O)NCCc2sc(-c3ccc(F)cc3)nc2C)cc1OC,-2.3%
COc1cccc(N2CC(NC(=O)c3cc4ccccc4o3)CC2=O)c1 (stereo unspecified),?
CCCn1c(SCc2nc(-c3ccccc3C)no2)nnc1-c1ccc(Cl)cc1,-0.4%
CCC1Oc2ccccc2N(CC(=O)NCc2ccc(C)cc2)C1=O (stereo unspecified),-36.0%
Cc1c(-c2nc(-c3ccccc3F)no2)nnn1-c1cc(F)ccc1F,3.8%
COc1ccccc1Nc1nc(-c2ccccc2F)nc2ccccc12,3.8%
COc1cc(CN2CCN(S(=O)(=O)c3ccccc3)CC2)cc(OC)c1O,1.0%
CCOCCc1nn2c(=O)cc(COC(=O)C(CC)c3ccccc3)nc2s1 (stereo unspecified),0.8%
CCC(Cn1nnc2ccccc2c1=O)NC(=O)Nc1cc(OC)cc(OC)c1 (stereo unspecified),21.2%
Cc1nc2ccn(Cc3ccccc3)c(=O)c2cc1C(=O)NCc1ccccc1F,22.0%
O=C(Nc1ccc(Cl)c(C(F)(F)F)c1)c1nc2ccccc2nc1N1CCCCC1,24.6%
Cc1ccc(S(=O)(=O)C(CNC(=O)c2ccc(F)c(F)c2)c2ccco2)cc1 (stereo unspecified),-11.0%
CCCn1c(=N)c(C(=O)NCc2cccnc2)cc2c(=O)n3cccc(C)c3nc21,-1.0%
O=C(Cn1c(SCc2ccccc2F)nc2cccnc21)Nc1ccc(F)c(Cl)c1,0.6%
O=C(CSc1nc2ncccc2o1)Nc1ccc(Cl)cc1F,-29.7%
Cc1ccc(OCCSc2nc3ccccc3n2CC(=O)N2CCCCC2)cc1C,15.0%
O=[N+]([O-])c1cc(-c2nc(-c3ccccn3)no2)ccc1NCc1ccccc1,0.0%
CCc1cccc(NC(=O)CCNS(=O)(=O)c2ccc3c(c2)CCN3C(C)=O)c1,1.5%
Cc1c(Cl)cccc1-n1ncc(C(=O)Nc2ccc(Br)cc2F)c1C1CCNCC1,10.1%
CCOc1ccc(N2CC(NC(=O)c3ccco3)CC2=O)cc1 (stereo unspecified),5.5%
CCC(C(=O)NCc1ccccc1Cl)n1nc(C)c2sc3ccccc3c2c1=O (stereo unspecified),-12.0%
CCc1cccc(NC(=O)Cn2c(=O)n(-c3cccc(Cl)c3)c(=O)c3c2c2cc(C)ccc2n3C)c1,-0.4%
CCCOc1ccc(CN(C(=O)c2nc(SC(C)C)ncc2Cl)C2CCS(=O)(=O)C2)cc1 (stereo unspecified),13.3%
Cc1ccccc1CNC(=O)C1CCN(c2nnc(C)c3c(C)n(-c4ccccc4)nc23)CC1,-3.1%
Cc1ccc(C)c(N2CCN(C(=O)c3cc4c(=O)n(Cc5ccco5)ccc4nc3C)CC2)c1,9.2%
O=C(NC1CCCC1)c1ccc2c(c1)N(Cc1ccc(F)cc1)C(=O)c1ccccc1S2,-6.1%
Cc1ccc(Cn2c(=O)c3cccnc3n(Cc3ccc(F)cc3)c2=O)cc1,-8.2%
COc1ccc(C)cc1NC(=O)N(Cc1ccc(C)o1)C1CCN(C(C)=O)CC1,-9.2%
CCOc1ccc(NCc2cccn2-c2nnc(N3CCC(C(=O)NCC(C)c4ccccc4)CC3)s2)cc1 (stereo unspecified),29.6%
COc1ccc(CNC(=O)c2ccc(CNS(=O)(=O)c3ccc(F)cc3)cc2)cc1,-3.8%

# The last 3 records of the part above lead into the next:
SMILES,miR-21 FLuc
COc1ccc(C)cc1NC(=O)N(Cc1ccc(C)o1)C1CCN(C(C)=O)CC1,-9.2%
CCOc1ccc(NCc2cccn2-c2nnc(N3CCC(C(=O)NCC(C)c4ccccc4)CC3)s2)cc1 (stereo unspecified),29.6%
COc1ccc(CNC(=O)c2ccc(CNS(=O)(=O)c3ccc(F)cc3)cc2)cc1,-3.8%
Cc1c(C(=O)N(C)C)sc2c1c(=O)n(-c1ccc(Cl)c(Cl)c1)c(=O)n2Cc1ccc(F)cc1,14.7%
Cc1ccccc1NC(=O)CSc1nnc(COc2ccc(Cl)cc2)o1,14.0%
COc1ccccc1CNC(=O)CCCc1nnc2n(CC(C)C)c(=O)c3sccc3n12,13.6%
Cc1nnc(NC(=O)CSc2nccn2-c2cccc(Cl)c2)s1,0.4%
COc1ccc(C)c2sc(NC(=O)c3ccc(S(=O)(=O)N(C)C)cc3)nc12,1.5%
O=C(Cn1ccn(-c2ccc(F)cc2)c(=O)c1=O)Nc1ccc(F)cc1,-1.6%
CC(=O)c1ccc(NC(=O)CCc2c(C)nn(-c3ccc4nncn4n3)c2C)cc1,-0.5%
CCOc1ccc(-n2c(C)nc3cc(C(=O)NCCC4=CCCCC4)ccc32)cc1,-2.5%
CC(C)CC(NS(=O)(=O)c1ccc2c(c1)oc(=O)n2C)C(=O)NCCc1ccc(Cl)cc1 (stereo unspecified),0.1%
O=C(NCc1cccc(Cl)c1)c1c2c(nc3ccccc13)C(=O)N(C1CCCCC1)C2,1.0%
CN1C(=O)C2(c3ccccc31)N(c1ccc(Br)cc1)C(=O)CS2(=O)=O (stereo unspecified),-1.3%
Cc1cc(C)c(S(=O)(=O)Nc2ccc3oc4c(c3c2)CCCC4)cc1C,-3.3%
Cc1nn(C(=O)c2cccc([N+](=O)[O-])c2C)c(C)c1S(=O)(=O)N1CCOCC1,-1.0%
CCOc1ccc(NC(=O)C(=O)NCCc2csc(-c3ccc(C)cc3)n2)cc1,-3.7%
COc1cccc(NC(=O)c2oc3ccc(S(=O)(=O)N4CCCCCC4)cc3c2C)c1,26.2%
COc1cc(NC(=O)Cn2cnc3sc(C)c(S(=O)(=O)N4CCC(C)CC4)c3c2=O)cc(OC)c1OC,0.3%
Cc1cn2c(=O)cc(COC(=O)c3cccc(NC(=O)COc4ccccc4)c3)nc2s1,-26.2%
O=C(O)c1ccc(N2C(=O)c3[nH]nc(-c4ccccc4)c3C2c2cccc(F)c2)cc1 (stereo unspecified),-3.2%
COc1ccc(NC(=O)Nc2nnc(N(CC(C)C)CC(C)C)s2)c(OC)c1,-0.2%
Cc1ccc(C(=O)Nc2nnc(S(=O)(=O)N(C)Cc3ccc(F)cc3)s2)cc1,-26.2%

# Structural class, those above with a nitro group on carbon.
SMILES,miR-21 FLuc
O=[N+]([O-])c1cc(-c2nc(-c3ccccn3)no2)ccc1NCc1ccccc1,0.0%
Cc1nn(C(=O)c2cccc([N+](=O)[O-])c2C)c(C)c1S(=O)(=O)N1CCOCC1,-1.0%

# Other compounds follow.
SMILES,miR-21 FLuc
O=C(NC1CCCCC1)c1ccc2c(c1)sc1nc(-c3ccccc3)cn12,-10.2%
CCCCNc1cc(N2CCN(C3CCCCC3)CC2)c2noc3c2c1C(=O)c1ccccc1-3,2.7%
CCOc1cc2[nH]c(=O)n(CCCCC(=O)N3CCN(c4ccc(OC)cc4)CC3)c(=O)c2cc1OCC,-0.8%
Cc1cc(C(=O)O)ccc1-c1ccc(/C=C2\SC(=O)N(CC(=O)Nc3ccc4c(c3)OCO4)C2=O)o1,0.5%
CN(C)CCCN(C(=O)c1ccc2c(c1)OCCO2)c1nc2ccc(Cl)cc2s1,-25.8%
CC1=C(C(=O)Nc2ccccc2)C(c2cccs2)n2nc(SCc3ccccc3F)nc2N1 (stereo unspecified),7.7%
Cc1cccc(-n2c(C)nc3cc(C(=O)NCCC4=CCCCC4)ccc32)c1,12.8%
Cc1ccc(-c2nnn3c2nc(NCC(C)c2ccccc2)c2ccccc23)cc1 (stereo unspecified),-30.4%
COc1cccc(-c2cn3c(n2)sc2cc(C(=O)NCCc4ccc(OC)c(OC)c4)ccc23)c1,-2.9%
CC(C)C(NS(=O)(=O)c1cccc2cccnc12)C(=O)Nc1ccc(OC(F)(F)F)cc1 (stereo unspecified),18.8%
CCOC(=O)c1oc2c(c1C)-c1nn(Cc3ccc(Cl)cc3)cc1CC2,1.4%
Cc1ccc(-n2c(=O)c3c(cnn3C)n(CC(=O)Nc3cccc(C)c3)c2=O)cc1,-2.4%
CCc1cccc(NC(=O)C(Cc2ccccc2)n2cccc2)c1 (stereo unspecified),12.6%
Fc1ccc(-n2ncc3c(NCCCn4ccnc4)ncnc32)cc1,-44.6%
CCOC(=O)c1c(NC(=O)c2ccc(C)cc2)sc2c1CCCCC2,-1.0%
Cn1c(=O)c2c(SCC(=O)N3CCc4ccccc43)nc(-c3ccccc3Cl)nc2n(C)c1=O,-2.7%
COc1cccc(OCCSc2nc3ccccc3n2CC(=O)N2CCOCC2)c1,19.0%
CCOc1ccc(NC(=O)C(C)Sc2nnc3cc(C)c4ccccc4n23)cc1 (stereo unspecified),-20.3%
COc1cccc(N2CC(NC(=O)/C=C\c3ccccc3)CC2=O)c1 (stereo unspecified),-0.1%
CCOc1ccccc1CNC(=O)CN(c1ccc(C)cc1)S(=O)(=O)N(C)C,8.4%
COc1ccccc1C(=O)Nc1ccccc1OCc1cc(=O)n2cc(C)sc2n1,4.7%
COc1ccc(S(=O)(=O)NCc2ccc3c(c2)CCN3C(C)=O)cc1OC,0.5%
Cc1cc(C)c(-c2csc(-c3cc4ccccc4oc3=O)n2)cc1C,3.2%
CN1C(=O)Cc2cc(S(=O)(=O)CCC(=O)N3CCN(c4cccc(Cl)c4)CC3)ccc21,1.6%
Cc1noc(/C=C/N(C)C)c1S(=O)(=O)N1CCCC(C(=O)Nc2cccc(F)c2)C1 (stereo unspecified),-4.9%
COC(=O)c1cccc(NC(=O)c2nsc3ccccc23)c1,?
COc1cccc(CNC(=O)C2CCN(c3nnc(-n4c(C)ccc4C)s3)CC2)c1,-0.2%
Cc1ccc(CCNC(=O)c2cc(C)nc3c2c(C)nn3-c2ccc(C)cc2)cc1,-0.7%
CCOC(=O)c1ccc(NC(=O)C(CC)Sc2nc3ncccc3o2)cc1 (stereo unspecified),-70.9%

# Only part of the results is shown. The share of hits here may be higher or lower than overall.
